# BJeLR lethal = BJeLR cell viability loss | inhibition, % (no concentration beside the values) | BJeLR (HRASV12) viability, CellTiter-Glo ATP luminescence, 48 h; reference of the scale not given here | actives 0.17% (n = 300,000);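 active = replicate mean above 50%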;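 also: 50 nL library stock added to about 25 µL; numbers are from one replicate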
# Mtb hypoxia inh = Mtb hypoxia fluorescent reporter inhibition; actives 0.1% (n = 300,000); M. tuberculosis hypoxia-regulated fluorescent reporter, fluorescence; fluorescence inhibition, % (no concentration beside the values);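 active = 35 to 45% if threefold the growth effect, above 45% if 1.5-fold the growth effect; inactive = the rest, general growth blockers included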;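 also: wells of about 50 µL received 100 nL stock; 0% = vehicle wells and 100% = reference inhibitor wells; whole bacteria with a GFP reporter of the hypoxia response; strong numbers were not always called active; many hits fall short of the cut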
# ugtP null kill = compounds lethal to S. aureus RN4220 ugtP deletion mutant; growth inhibition, % (test concentration not listed); actives 0.54% (n = 330,000); OD600 growth, 16 h; some inactives read as strong as hits;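 active = z-score under -3 and OD600 up to 0.15 on both plates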;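 also: plate controls were untreated wells for no effect and antibiotic for full effect; wells of about 80 µL received 100 nL stock; the first replicate is given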
# Autofluor counter = counter-screen for toxin protease inhibitors: compound fluorescence; fluorescence intensity (test concentration not listed); AID 624483; actives 3.1% (n = 360,000); compound autofluorescence counterscreen, microsphere flow cytometry; active compounds read high;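 active = at least 3 SD above the mean of all compounds, about 16000 in these data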;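 also: 100 nL of 1 mM stock went into each well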
# Sa RN4220 lethal = S. aureus RN4220 growth inhibition. OD600, 16 h. inhibition, % (test concentration not listed). actives 0.33% (n = 330,000);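 active = z-score of -3 or lower and OD600 up to 0.18 on both plates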;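 also: plate controls were untreated cells for no effect and reference antibiotic for full effect; stock transfer was 100 nL into about 80 µL; one replicate is shown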
# PrP UTR inh = inhibition of PrP 5' UTR reporter expression; cell-based PrP 5' UTR mRNA reporter, plate reader; actives 0.35% (n = 340,000); inhibition, % (concentration not given with the values);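 active = every replicate at 50% or more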;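 also: 0 = median of the neutral control wells; tested in H4 reporter cells; numbers are from one replicate; inactives centre near -14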
# Mtb hypoxia inh growth = second read-out of Mtb hypoxia inh, no call of its own (marks repeat the call); growth inhibition, %; measured here: M. tuberculosis growth (absorbance);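 0% = vehicle and 100% = reference antibiotic; read after six days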
# An asterisk follows results filed as active; . = no result given; & = joins results of further samples.
No.	molecule	BJeLR lethal	PrP UTR inh	Sa RN4220 lethal	Autofluor counter
1	COc1ccc2[nH]c3nc(SC(C)C)nnc3c2c1	8	8	-14	2553
2	COc1ccc(CCNC(=O)NC2CCCCC2)cc1	-1	-26	5.6	3167
3	COC(=O)CNC(=O)c1cc(-c2ccncc2)nc2ccccc12	8	-23	-1.5	4996
4	C=CCNC(=O)NC(=O)COC(=O)CNS(=O)(=O)c1ccc(F)c(F)c1F	2	-33	0.2	3134
5	Cc1cc(NC(=NS(=O)(=O)c2ccc(Cl)cc2)c2ccc(F)cc2)no1	.	.	1.7	.
6	CCc1ccc(OCC(=O)N/N=C(\C)c2ccccc2OC(F)F)cc1	5	-3	.	2469
7	O=[N+]([O-])c1cccc(NP(=O)(N2CC2)N2CC2)c1	.	-15	1.7	3955
8	O=C(c1ccc(Cn2c(=S)[nH]c3ccc(N4CCOCC4)cc3c2=O)cc1)N1CCC(N2CCCCC2)CC1	1	-18	-1.9	5077
9	COc1ccc(CC(=O)N2CCCc3ccccc32)cc1	-5	-23	7.6	4288
10	CCC(CO)Oc1cc(NCc2ccncc2)c2ncn(C(C)C)c2c1 (configuration not stated)	.	-7	5.5	3847
11	CC(OC(=O)c1ccc(=O)n(Cc2ccccc2)n1)C(=O)Nc1cccc(Cl)c1 (configuration not stated)	-5	-26	-2.6	6644
12	CCn1c(=NC(=O)c2ccc(S(=O)(=O)N(C)C)cc2)sc2cccc(OC)c21	4	4	-3.2	2634

No.	Mtb hypoxia inh growth	ugtP null kill	Mtb hypoxia inh
1	9	-10	-2
2	11	-3	9
3	-5	-1	5
4	3	7	16
5	3	2	-1
6	.	.	.
7	6	3	-2
8	9	1	-3
9	10	-7	-1
10	1	-4	6
11	-11	11	6
12	0	-9	-8

# Next structures:
No.	molecule	BJeLR lethal	PrP UTR inh	Sa RN4220 lethal	Autofluor counter
13	Cc1cccc(NC(=O)c2cc3ccccc3c(=O)o2)n1	5	.	2.0	3871
14	CCc1ccccc1S(=O)(=O)Cc1ccc(C(=O)N2CCN(c3ccccc3OC)CC2)o1	-2	-29	2.8	5063
15	O=C(Nc1ccc(NC(=O)c2ccco2)c(Cl)c1)c1ccccc1	4	-18	3.5	3383
16	COc1cccc(/C=C2/SC(=O)N(CC(=O)N3CCc4ccccc4C3)C2=O)c1OCC(=O)O	-3	-8	2.4	4283
17	CCCC(=O)NC(c1ccc(Cl)cc1)c1ccc2cccnc2c1O (configuration not stated)	9	28	.	4752
18	CN(CC(=O)N1CCN(Cc2ccccc2)CC1)S(=O)(=O)c1cccc2nsnc12	2	-3	0.7	4065
19	Cc1ccccc1-c1nc2c(s1)CCc1onc(-c3cccc([N+](=O)[O-])c3)c1-2	-8	-12	3.1	2855
20	O=C(Cc1cccc2ccccc12)N1CCN(c2ncccn2)CC1	5	-77	2.5	4199
21	CC1CCCCN1S(=O)(=O)c1cn(C)c(=O)n(C)c1=O (configuration not stated)	0	-18	2.6	6774
22	CC(=O)c1ccc(OCC(O)CN2CCN(Cc3ccccc3)CC2)cc1 (configuration not stated)	9	-29	-1.2	5646
23	O=S(=O)(c1ccc(NC(=S)Nc2ccc3c(c2)OCO3)cc1)N1CCOCC1	4	3	0.8	2383
24	O=[N+]([O-])c1ccc(-c2csc(N/N=C/c3cccnc3)n2)cc1	15	-26	.	4231

No.	Mtb hypoxia inh growth	ugtP null kill	Mtb hypoxia inh
13	10	4	17
14	.	5	.
15	6	18	7
16	.	-12	.
17	.	.	.
18	-2	8	17
19	5	-1	5
20	-6	0	-2
21	-3	1	4
22	.	2	.
23	2	4	4
24	.	.	.

# Other results.
No.	molecule	BJeLR lethal	PrP UTR inh	Sa RN4220 lethal	Autofluor counter
25	Cc1ccc(-c2noc(COC(=O)c3ccco3)n2)cc1	.	-44	5.5	3525
26	O=C(NC(C(=O)c1ccccc1)N1CCOCC1)c1cccs1 (configuration not stated)	3	-10	7.7	5638
27	COc1ccc(C(=O)O)cc1S(=O)(=O)NCCCN1CCCC1=O	2	-10	-2.3	3800
28	CCOC(=O)/C=C1\SCC(=O)N1CC(=O)NCCc1ccc(F)cc1	6	-29	8.0	4261
29	CCc1nc(CNC(=O)c2cc(OC)c(OC)c(OC)c2)no1	-3	-31	5.0	4692
30	O=C1C(Cl)=C(N2CCN(Cc3ccccc3)CC2)C(=O)N1Cc1ccccc1	-2	-10	-6.5	4029
31	N#Cc1cc2c(nc1SCc1cccc(Cl)c1)CCCCC2	3	-6	-0.1	2962
32	CC1CCN(CCCNC(=O)C2CCCN(c3ncnc4c3nc3n4CCCCC3)C2)CC1 (configuration not stated)	12	-8	3.2	6870
33	CC(C)CCN(C)c1ccc(C=Nn2cnnc2)cc1	.	.	-7.7	.
34	CCN(CC(=O)Nc1ccccc1C(F)(F)F)C(=O)CCc1nc2sc3c(c2c(=O)[nH]1)CCCC3	5	-5	4.2	4468
35	CN(C(=O)CSc1nnc(-c2cccnc2)o1)C1CCCCC1	.	-1	3.2	4243
36	O=C(Nc1oc2ccccc2c(=O)c1-c1ccc(Cl)cc1)c1ccco1	3	-8	-2.4	4579

No.	Mtb hypoxia inh growth	ugtP null kill	Mtb hypoxia inh
25	7	0	7
26	1	13	7
27	.	10	.
28	-5	11	-11
29	.	4	.
30	5	32	8
31	.	7	.
32	-8	9	6
33	7	-14	14
34	-4	-4	10
35	1	-2	8
36	-8	-25	-8

# Additional records follow:
No.	molecule	BJeLR lethal	PrP UTR inh	Sa RN4220 lethal	Autofluor counter
37	COCc1c(C(=O)NN=CC2CC=CCC2)nnn1-c1nonc1N (configuration not stated)	.	.	-2.6	.
38	COc1ccc(NC(=O)c2nc(C)n(-c3ccc([N+](=O)[O-])cc3)n2)cc1	1	-9	5.5	4790
39	CCC(=O)N1N=C(c2cccs2)CC1c1ccc(OC)cc1 (configuration not stated)	8	-16	6.8	4055
40	CCCCNC(=O)CSc1nc2ccc(NC(=O)CSc3nnc(COc4ccccc4C)n3C)cc2s1	-7	-26	-15	3392
41	Cc1ccc(-n2ncc(C(=O)NC3CC3)c2C2CCN(C(=O)OC(C)(C)C)CC2)cc1	0	-8	7.3	5502
42	O=C(NCc1ccco1)c1cc(-c2ccc(F)cc2)on1	14	-83	1.3	22220*
43	O=C(CSc1nc2cc(Cl)ccc2o1)NCCc1ccccc1	-1	-5	4.0	19890*
44	CN1C(CC(O)c2ccccc2)CCCC1CC(O)c1ccccc1 (configuration not stated)	.	-18	2.5	5331
45	COc1cccc(CN2C(=O)NC3(CCCCCC3)C2=O)c1	-2	-17	2.0	3748
46	CC(C)OCCCNC(=O)C1CC(=O)N(C2CCCCCCC2)C1 (configuration not stated)	-6	-10	-1.8	3536
47	COc1cc2[nH]c(=O)n(CCC(=O)NCc3cccnc3)c(=O)c2cc1OC	-5	-7	5.6	6577
48	O=C(NN1C(=O)C2C3C=CC(C4CC34)C2C1=O)c1ccc(Br)cc1 (configuration not stated)	-7	58*	-8.9	4167

No.	Mtb hypoxia inh growth	ugtP null kill	Mtb hypoxia inh
37	4	1	3
38	8	0	17
39	-1	3	-2
40	1	1	-2
41	0	4	2
42	4	-5	13
43	9	2	10
44	3	0	4
45	6	11	11
46	8	-9	1
47	7	0	-2
48	4	21	9

# More structures follow.
No.	molecule	BJeLR lethal	PrP UTR inh	Sa RN4220 lethal	Autofluor counter
49	CC(=O)c1ccc(NC(=O)Nc2ccncc2)cc1	0	-13	-0.9	4564
50	COc1ccc(CN(C)C(=O)c2ccncc2)c(OC)c1	5	0	5.2	5442
51	Cc1ccc(Cn2c(CCNc3nc(-c4ccc(C)cc4)cs3)nc3cc(C(=O)NCCCO)ccc32)cc1	-1	-10	-1.4	3793
52	CC(C)c1ccc(NC(=S)Nc2ccc3cn[nH]c3c2)cc1	0	-7	3.3	4717
53	CC(=O)OC1CCC2(C)C(COc3ccc4ccc(=O)oc4c3)C(C)(O)CCC2C1(C)C (configuration not stated)	3	0	-1.5	2743
54	CCOC(=O)c1cccc(NC(=O)C(NS(=O)(=O)c2ccc3c(c2)CCN3C(C)=O)C(C)C)c1 (configuration not stated)	.	-19	4.8	4498
55	CN(C)C(CNC(=O)c1ccccc1C(F)(F)F)c1ccco1 (configuration not stated)	-15	6	-1.8	3150
56	Cc1cc(C)cc(NC(=O)CN2CCC(NC(=O)c3ccccc3F)CC2)c1	-7	-27	1.0	4451
57	N#C/C(=C(/O)COc1ccccc1)c1nnc2n1CCCCC2	13	-14	1.3	4389
58	CCOc1ccc(/C(O)=C2/C(=O)C(=O)N(CCCN3CCOCC3)C2c2ccc(F)cc2)cc1C (configuration not stated)	-7	.	-2.5	3615
59	COc1ccc(NC(=O)C2CCN(S(=O)(=O)c3ccccc3)CC2)cc1	-1	14	-1.4	5606
60	O=C(CCN1C(=O)COc2ccccc21)NCc1cccnc1	-1	-36	6.7	8145

No.	Mtb hypoxia inh growth	ugtP null kill	Mtb hypoxia inh
49	-1	8	-8
50	3	7	2
51	5	12	3
52	.	-3	.
53	8	-20	-2
54	3	-2	13
55	-10	-3	-7
56	4	0	-1
57	9	4	8
58	8	5	-8
59	1	1	-6
60	4	5	4

# Some of these compounds in order of molecular weight, ascending:
No.	molecule	BJeLR lethal	PrP UTR inh	Sa RN4220 lethal	Autofluor counter
50	COc1ccc(CN(C)C(=O)c2ccncc2)c(OC)c1	5	0	5.2	5442
45	COc1cccc(CN2C(=O)NC3(CCCCCC3)C2=O)c1	-2	-17	2.0	3748
52	CC(C)c1ccc(NC(=S)Nc2ccc3cn[nH]c3c2)cc1	0	-7	3.3	4717
60	O=C(CCN1C(=O)COc2ccccc21)NCc1cccnc1	-1	-36	6.7	8145
55	CN(C)C(CNC(=O)c1ccccc1C(F)(F)F)c1ccco1 (configuration not stated)	-15	6	-1.8	3150
46	CC(C)OCCCNC(=O)C1CC(=O)N(C2CCCCCCC2)C1 (configuration not stated)	-6	-10	-1.8	3536
59	COc1ccc(NC(=O)C2CCN(S(=O)(=O)c3ccccc3)CC2)cc1	-1	14	-1.4	5606
56	Cc1cc(C)cc(NC(=O)CN2CCC(NC(=O)c3ccccc3F)CC2)c1	-7	-27	1.0	4451
47	COc1cc2[nH]c(=O)n(CCC(=O)NCc3cccnc3)c(=O)c2cc1OC	-5	-7	5.6	6577
48	O=C(NN1C(=O)C2C3C=CC(C4CC34)C2C1=O)c1ccc(Br)cc1 (configuration not stated)	-7	58*	-8.9	4167
53	CC(=O)OC1CCC2(C)C(COc3ccc4ccc(=O)oc4c3)C(C)(O)CCC2C1(C)C (configuration not stated)	3	0	-1.5	2743
54	CCOC(=O)c1cccc(NC(=O)C(NS(=O)(=O)c2ccc3c(c2)CCN3C(C)=O)C(C)C)c1 (configuration not stated)	.	-19	4.8	4498
51	Cc1ccc(Cn2c(CCNc3nc(-c4ccc(C)cc4)cs3)nc3cc(C(=O)NCCCO)ccc32)cc1	-1	-10	-1.4	3793

No.	Mtb hypoxia inh growth	ugtP null kill	Mtb hypoxia inh
50	3	7	2
45	6	11	11
52	.	-3	.
60	4	5	4
55	-10	-3	-7
46	8	-9	1
59	1	1	-6
56	4	0	-1
47	7	0	-2
48	4	21	9
53	8	-20	-2
54	3	-2	13
51	5	12	3

# Following part:
No.	molecule	BJeLR lethal	PrP UTR inh	Sa RN4220 lethal	Autofluor counter
61	CCOC(=O)CCCNC(=O)CSc1nnc(-c2ccccc2)c(-c2ccccc2)n1	-16	-23	2.9	3562
62	Nc1ccc(C(=O)N2CCN(S(=O)(=O)c3ccc4c(c3)OCCO4)CC2)cc1[N+](=O)[O-]	2	1	-1.9	4471
63	CC(Sc1ncccn1)C(=O)NNC(=O)c1cccc(Cl)c1 (configuration not stated)	.	-2	2.8	5780
64	C=CCOC(=O)/C(=C/c1cccc2ccccc12)NC(=O)c1ccccc1	-4	-29	16	9979
65	Oc1ccc2c3c1OC1[C@H](O)CC[C@@]4(O)[C@@H](C2)N(CC2CC2)CC[C@]314 (some centres not stated)	.	8&-6	1.1&1.5	5610&4844
66	Brc1ccccc1/C=N/Nc1ccccn1	6	-83	.	3312
67	COc1cc2[nH]c(=O)c(C(=O)NCc3ccc(F)cc3)c(O)c2cc1OC	-3	-28	4.3	3944
68	CCn1nccc1C(=O)Nc1ccc(Cl)cc1Cl	1	-7	1.2	5772

No.	Mtb hypoxia inh growth	ugtP null kill	Mtb hypoxia inh
61	0	-4	12
62	-7	1	1
63	13	9	13
64	8	14	1
65	.	-9&9	.
66	.	.	.
67	-2	13	16
68	14	-2	2

# High-throughput results from PubChem.
